Yeast UUG start = alters start codon recognition fidelity in yeast | S. cerevisiae UUG-firefly luciferase reporter, luminescence/redox ratio | activity score, % at 18.7 µM | 350,000 tested, 0.13% active | AID 602363;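 active = replicate mean at a twofold rise or more, about +100% in these data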;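 note: firefly luciferase made from a UUG start codon reports start codon fidelity; reporter light over untreated wells divided by growth signal over untreated wells; some hits fall short of that in this replicate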
HIV Env fusion = HIV envelope-mediated fusion inhibition. HeLa-JRFL Env/CEM21 cell fusion, luciferase. inhibition, % at 12.3 µM. 360,000 tested, 1.1% active. AID 651610;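 active = mean replicate inhibition score of at least 50 and every replicate individually at or above 50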;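 note: 0% = plate neutral controls and 100% = maraviroc near 300 nM; one replicate is shown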
Starred values were filed as active, the others as inactive; [ ] = dose if it differs, or a comment. Some of the compounds tested (hit frequency here may not be typical).

Results for C[C@H](CO)N1C[C@H](C)[C@@H](CN(C)CC2CCOCC2)Oc2ncc(-c3ccc(F)cc3)cc2C1=O ?
Yeast UUG start: -10; HIV Env fusion: -19[16.7 µM]

How did Cc1ccccc1S(=O)(=O)N1[C@H](C#N)[C@@H](c2ccc(-c3ccccc3)cc2)[C@@H]1CO do in these assays?
Yeast UUG start: -26; HIV Env fusion: 10[16.7 µM]

Results for C[C@@H]1CN([C@@H](C)CO)C(=O)c2cc(C3=CCCC3)cnc2O[C@@H]1CN(C)C(=O)CN1CCOCC1 ?
Yeast UUG start: 19; HIV Env fusion: 6[16.7 µM]

Results for C[C@H]1CCCCO[C@@H](CN(C)S(=O)(=O)c2ccccc2)[C@@H](C)CN([C@@H](C)CO)C(=O)c2cc(NC(=O)Cc3ccccc3)ccc2O1 ?
Yeast UUG start: 38; HIV Env fusion: 2[16.7 µM]

What do the screens show for `O=C(N[C@H]1CC[C@@H](CCn2cc(C3(O)CCCC3)nn2)O[C@@H]1CO)C1CCCCC1`?
Yeast UUG start: 2; HIV Env fusion: 8[16.7 µM]

Results for COc1cccc(CNC(=O)C[C@@H]2CC[C@@H](NC(=O)C3CCOCC3)[C@H](CO)O2)c1 ?
Yeast UUG start: -2; HIV Env fusion: -5[16.7 µM]

Results for COC(=O)C[C@H]1CC[C@@H](NS(=O)(=O)c2ccc(OC)cc2)[C@H](CO)O1 ?
Yeast UUG start: -8; HIV Env fusion: -2[16.7 µM]

What do the screens show for `C[C@H](CO)N1C[C@H](C)[C@@H](CN(C)Cc2ccc3c(c2)OCO3)Oc2ccc(NC(=O)CCN3CCOCC3)cc2C1=O`?
Yeast UUG start: 6; HIV Env fusion: -17[16.7 µM]

What do the screens show for `COCC#Cc1cnc2c(c1)C(=O)N([C@H](C)CO)C[C@@H](C)[C@@H](CN(C)C(=O)CCN1CCCCC1)O2`?
Yeast UUG start: 5; HIV Env fusion: -3[16.7 µM]

What do the screens show for `O=C(C[C@@H]1CC[C@@H]2[C@H](COC[C@@H](O)CN2Cc2ccc(Cl)cc2)O1)NCCc1ccccc1`?
Yeast UUG start: -4; HIV Env fusion: 25[16.7 µM]

Looked up one by one from the entries so far:
What do the screens show for `O=C(C[C@@H]1CC[C@@H]2[C@H](COC[C@@H](O)CN2Cc2ccc(Cl)cc2)O1)NCCc1ccccc1`?
Yeast UUG start: -4; HIV Env fusion: 25[16.7 µM]

What do the screens show for `O=C(N[C@H]1CC[C@@H](CCn2cc(C3(O)CCCC3)nn2)O[C@@H]1CO)C1CCCCC1`?
Yeast UUG start: 2; HIV Env fusion: 8[16.7 µM]

Results for COc1cccc(CNC(=O)C[C@@H]2CC[C@@H](NC(=O)C3CCOCC3)[C@H](CO)O2)c1 ?
Yeast UUG start: -2; HIV Env fusion: -5[16.7 µM]

Results for C[C@H](CO)N1C[C@H](C)[C@@H](CN(C)CC2CCOCC2)Oc2ncc(-c3ccc(F)cc3)cc2C1=O ?
Yeast UUG start: -10; HIV Env fusion: -19[16.7 µM]

(further entries)
Results for COc1ccc(S(=O)(=O)N(C)C[C@@H]2OCCCC[C@H](C)Oc3ccc(NC(=O)NC(C)C)cc3C(=O)N([C@@H](C)CO)C[C@H]2C)cc1 ?
Yeast UUG start: -3; HIV Env fusion: 7[16.7 µM]

How did COc1ccc(C#Cc2ccc3c(c2)[C@]2(C(=O)N3)[C@H](c3ccc(OCCO)cc3)N3[C@H](c4ccccc4)[C@H](c4ccccc4)OC(=O)[C@H]3[C@@H]2C(=O)N2CCN(c3ncccn3)CC2)cc1 do in these assays?
Yeast UUG start: -15; HIV Env fusion: 22[16.7 µM]

How did Cc1ccc(S(=O)(=O)N(C)C[C@H]2Oc3ccc(NS(=O)(=O)c4ccc(Cl)cc4)cc3CC(=O)N([C@H](C)CO)C[C@@H]2C)cc1 do in these assays?
Yeast UUG start: 14; HIV Env fusion: -17[16.7 µM]

Results for C[C@H]1CN([C@@H](C)CO)S(=O)(=O)c2ccc(C3=CCCC3)cc2O[C@@H]1CN(C)Cc1ccncc1 ?
Yeast UUG start: 9; HIV Env fusion: 28[16.7 µM]

Results for CC(=O)N(C)C[C@H]1Oc2cc(C#CCC3CCCC3)ccc2S(=O)(=O)N([C@H](C)CO)C[C@H]1C ?
Yeast UUG start: 58; HIV Env fusion: 25[16.7 µM]

How did C[C@@H]1CCCCO[C@@H](CN(C)C(=O)NC2CCCCC2)[C@@H](C)CN([C@H](C)CO)C(=O)c2cc(NC(=O)c3ccccc3)ccc2O1 do in these assays?
Yeast UUG start: 20; HIV Env fusion: 16[16.7 µM]

Results for C[C@@H]1CN([C@H](C)CO)C(=O)Cc2cc(NS(=O)(=O)c3ccc(Cl)cc3)ccc2O[C@H]1CN(C)Cc1ccccc1 ?
Yeast UUG start: -3; HIV Env fusion: -11[16.7 µM]

What do the screens show for `C[C@@H]1CN([C@H](C)CO)C(=O)c2cc(C#C[C@@H](C)O)cnc2O[C@@H]1CN(C)Cc1cccc(F)c1`?
Yeast UUG start: -9; HIV Env fusion: -4[16.7 µM]

Results for C[C@H](CO)N1C[C@H](C)[C@@H](CN(C)C(=O)c2ccncc2)Oc2cc(/C=C/c3ccccc3)ccc2S1(=O)=O ?
Yeast UUG start: -17; HIV Env fusion: -22[16.7 µM]

What do the screens show for `C[C@H](CO)N1C[C@H](C)[C@@H](CN(C)Cc2ccccc2)Oc2c(NC(=O)Nc3ccc4c(c3)OCO4)cccc2C1=O`?
Yeast UUG start: 4; HIV Env fusion: -10[16.7 µM]

How did CC(C)(C)OC(=O)CC[C@@]12N=C(c3ccc(OCCCO)cc3)O[C@@H]1c1ccccc1CN(Cc1ccccc1)C2=O do in these assays?
Yeast UUG start: -1; HIV Env fusion: 7[16.7 µM]

Results for Cc1noc(C)c1NC(=O)N(C)C[C@@H]1OCCCC[C@H](C)Oc2ccc(NC(=O)NC3CCCCC3)cc2C(=O)N([C@@H](C)CO)C[C@@H]1C ?
Yeast UUG start: 3; HIV Env fusion: -40[16.7 µM]

Results for C/C=C/c1ccc2c(c1)O[C@@H](CN(C)C(=O)NCCC)[C@H](C)CN([C@@H](C)CO)S2(=O)=O ?
Yeast UUG start: 4; HIV Env fusion: -9[16.7 µM]

Results for O=C(C[C@@H]1CC[C@H]2[C@@H](COC[C@H](O)CN2C(=O)C2CC2)O1)NCc1ccccc1Cl ?
Yeast UUG start: 12; HIV Env fusion: 9[16.7 µM]

Results for C[C@@H]1CN([C@@H](C)CO)C(=O)c2cc(NC(=O)Nc3ccc(C(F)(F)F)cc3)ccc2O[C@@H](C)CCCCO[C@H]1CN(C)C(=O)Cc1ccccc1 ?
Yeast UUG start: -4; HIV Env fusion: 11[16.7 µM]

Results for C[C@H]1CN([C@@H](C)CO)C(=O)c2cc(C#CC3(O)CCCC3)cnc2O[C@H]1CN(C)C ?
Yeast UUG start: -7; HIV Env fusion: -5[16.7 µM]

Results for COc1ccccc1NC(=O)N[C@@H]1CC[C@@H](CCNS(=O)(=O)c2ccc(Cl)cc2)O[C@H]1CO ?
Yeast UUG start: -10; HIV Env fusion: 14[16.7 µM]

How did C[C@H](CO)N1C[C@H](C)[C@@H](CN(C)C(=O)Nc2ccc3c(c2)OCO3)Oc2ncc(-c3cncnc3)cc2C1=O do in these assays?
Yeast UUG start: 34; HIV Env fusion: 4[16.7 µM]

What do the screens show for `N#C[C@H]1[C@H](c2ccc(C#Cc3ccccc3F)cc2)[C@@H](CO)N1C(=O)C1CCC1`?
Yeast UUG start: -3; HIV Env fusion: -1[16.7 µM]

What do the screens show for `C[C@H]1CN([C@@H](C)CO)C(=O)Cc2cc(NS(C)(=O)=O)ccc2O[C@H]1CN(C)C(=O)Nc1ccc(C(F)(F)F)cc1`?
Yeast UUG start: -1; HIV Env fusion: 6[16.7 µM]

How did C[C@@H]1CN([C@@H](C)CO)C(=O)Cc2cc(NC(=O)Nc3ccc4c(c3)OCO4)ccc2O[C@H]1CN(C)S(=O)(=O)c1cccs1 do in these assays?
Yeast UUG start: -11; HIV Env fusion: 22[16.7 µM]

What do the screens show for `C[C@@H]1CN([C@H](C)CO)S(=O)(=O)c2ccc(-c3ccncc3)cc2O[C@H]1CN(C)Cc1cncnc1`?
Yeast UUG start: -9; HIV Env fusion: -2[16.7 µM]

What do the screens show for `C[C@H]1CN([C@@H](C)CO)C(=O)c2cccc(NC(=O)c3ccc(-c4nccs4)cc3)c2O[C@H]1CN(C)Cc1ccc(C(=O)O)cc1`?
Yeast UUG start: 0; HIV Env fusion: -26[16.7 µM]

How did C[C@H]1CN([C@@H](C)CO)C(=O)c2cc(NS(=O)(=O)c3ccc(Cl)cc3)ccc2O[C@H]1CN(C)S(=O)(=O)c1ccc(Cl)cc1 do in these assays?
Yeast UUG start: -3; HIV Env fusion: 17[16.7 µM]

How did C[C@H]1CN([C@@H](C)CO)C(=O)c2cc(/C=C/c3ccccc3)cnc2O[C@@H]1CN(C)C(=O)NC1CCCCC1 do in these assays?
Yeast UUG start: -1; HIV Env fusion: -18[16.7 µM]

What do the screens show for `C[C@H](O)C#Cc1ccc2c(c1)O[C@H](CN(C)C(=O)c1ccncc1)[C@H](C)CN([C@H](C)CO)S2(=O)=O`?
Yeast UUG start: -9; HIV Env fusion: 11[16.7 µM]

What do the screens show for `C[C@@H]1CCCCO[C@H](CN(C)C(=O)Nc2ccccc2)[C@@H](C)CN([C@H](C)CO)C(=O)c2cc(NC(=O)Nc3ccc(F)cc3)ccc2O1`?
Yeast UUG start: -8; HIV Env fusion: -16[16.7 µM]

How did C[C@@H]1CN([C@@H](C)CO)S(=O)(=O)c2ccc(-c3cccnc3)cc2O[C@@H]1CN(C)C(=O)CC1CC1 do in these assays?
Yeast UUG start: -12; HIV Env fusion: -15[16.7 µM]

How did CCS(=O)(=O)Nc1ccc2c(c1)C(=O)N(C)[C@@H]1CC[C@H](CC(=O)N3CCOCC3)O[C@H]1CO2 do in these assays?
Yeast UUG start: -14; HIV Env fusion: 6[16.7 µM]

How did C[C@H](CO)N1C[C@H](C)[C@@H](CN(C)Cc2ccccc2)Oc2ccc(NC(=O)CCC(F)(F)F)cc2CC1=O do in these assays?
Yeast UUG start: 3; HIV Env fusion: 8[16.7 µM]

Results for C[C@@H]1CN([C@@H](C)CO)C(=O)c2cccc(NS(=O)(=O)c3cn(C)cn3)c2O[C@@H]1CN(C)S(=O)(=O)c1ccc(Cl)cc1 ?
Yeast UUG start: 4; HIV Env fusion: 16[16.7 µM]

Results for C[C@@H]1CCCCO[C@@H](CN(C)CC2CCCCC2)[C@H](C)CN([C@H](C)CO)C(=O)c2cc(NC(=O)Nc3ccc4c(c3)OCO4)ccc2O1 ?
Yeast UUG start: -1; HIV Env fusion: 1[16.7 µM]

How did CC(C)CC#Cc1ccc2c(c1)O[C@H](CN(C)C(=O)Cc1ccncc1)[C@@H](C)CN([C@@H](C)CO)S2(=O)=O do in these assays?
Yeast UUG start: 0; HIV Env fusion: 18[16.7 µM]

What do the screens show for `C[C@H]1CCCCO[C@H](CN(C)Cc2ccc(C(F)(F)F)cc2)[C@@H](C)CN([C@@H](C)CO)C(=O)c2cc(NC(=O)c3ccccc3)ccc2O1`?
Yeast UUG start: 8; HIV Env fusion: 59*[16.7 µM]

What do the screens show for `C/C=C/c1ccc2c(c1)O[C@@H](CN(C)C(=O)C1CCCCC1)[C@@H](C)CN([C@H](C)CO)S2(=O)=O`?
Yeast UUG start: 11; HIV Env fusion: 38[16.7 µM]

How did O=C(C[C@H]1C[C@@H]2c3cc(NC(=O)NC4CCCCC4)ccc3O[C@@H]2[C@@H](CO)O1)NCc1ccccc1 do in these assays?
Yeast UUG start: -3; HIV Env fusion: 23[16.7 µM]

What do the screens show for `C[C@@H]1CCCCO[C@H](CN(C)S(=O)(=O)c2ccc(Cl)cc2)[C@H](C)CN([C@@H](C)CO)C(=O)c2cc(NC(=O)Nc3ccc4c(c3)OCO4)ccc2O1`?
Yeast UUG start: -12; HIV Env fusion: -3[16.7 µM]

Results for C[C@@H]1CCCCO[C@H](CN(C)C(=O)C2CCCCC2)[C@H](C)CN([C@H](C)CO)C(=O)c2cc(NS(=O)(=O)c3cn(C)cn3)ccc2O1 ?
Yeast UUG start: 3; HIV Env fusion: -9[16.7 µM]

Results for O=C(C[C@H]1C[C@@H]2c3cc(NC(=O)Nc4ccccc4F)ccc3O[C@@H]2[C@H](CO)O1)NCC(F)(F)F ?
Yeast UUG start: -6; HIV Env fusion: 7[16.7 µM]

How did C[C@H]1CN([C@@H](C)CO)C(=O)c2cc(NC(=O)Cc3cn(C)c4ccccc34)ccc2O[C@@H]1CN(C)S(C)(=O)=O do in these assays?
Yeast UUG start: 13; HIV Env fusion: -3[16.7 µM]

What do the screens show for `CCC(=O)N(C)C[C@H]1Oc2cc(-c3cccnc3)ccc2S(=O)(=O)N([C@@H](C)CO)C[C@@H]1C`?
Yeast UUG start: 4; HIV Env fusion: 14[16.7 µM]

Results for CCNC(=O)C[C@H]1C=C[C@H](NC(=O)NC2CCCCC2)[C@H](CO)O1 ?
Yeast UUG start: -29; HIV Env fusion: -4[16.7 µM]

How did C[C@@H]1CN([C@H](C)CO)C(=O)c2cc(C#Cc3ccncc3)cnc2O[C@H]1CN(C)C(=O)c1ccccc1F do in these assays?
Yeast UUG start: -12; HIV Env fusion: 16[16.7 µM]

What do the screens show for `C[C@@H]1CN([C@H](C)CO)C(=O)Cc2cc(NC(=O)C3CCCCC3)ccc2O[C@@H]1CN(C)CC1CCCCC1`?
Yeast UUG start: -2; HIV Env fusion: 8[16.7 µM]

Among those listed so far, these have a cyano group.
How did Cc1ccccc1S(=O)(=O)N1[C@H](C#N)[C@@H](c2ccc(-c3ccccc3)cc2)[C@@H]1CO do in these assays?
Yeast UUG start: -26; HIV Env fusion: 10[16.7 µM]

What do the screens show for `N#C[C@H]1[C@H](c2ccc(C#Cc3ccccc3F)cc2)[C@@H](CO)N1C(=O)C1CCC1`?
Yeast UUG start: -3; HIV Env fusion: -1[16.7 µM]
